Compound activity from PubChem.
HIV Env fusion: HIV envelope-mediated fusion inhibition. inhibition, % at 12.3 µM. HeLa-JRFL Env/CEM21 cell fusion, luciferase. 360,000 tested, 1.1% active;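 active = mean replicate inhibition score of at least 50 and every replicate individually at or above 50; inconclusive = only one of the two criteria met; inactive = mean below 50 and not all replicates reaching 50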;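 note: 0% = plate neutral controls and 100% = maraviroc near 300 nM; one replicate is shown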
MT1-MMP act inh: inhibitors of human MT1-MMP activation; P50281; HT1080 RFP-PRO-GFP cells, GFP/RFP ratio fluorescence, overnight; percent of plate control window, DMSO zero; GFP/RFP ratio change, % at 20 µM; 360,000 tested, 0.061% active;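 active = GFP/RFP ratio change of at least 30% with cell ATP level not reduced by more than half and red fluorescence within 50% of control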; note: strong numbers were not always called active
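Material: RFP-PRO-GFP reporter HT1080 cells. Dosing: single-point 20 µM compound, 1% DMSO. Controls: DMSO and RFP-L50D-GFP cell wells. Timing: cells overnight before dosing, compound overnight, 37 °C, 5% CO2. Measure: GFP/RFP fluorescence ratio.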
MT1-MMP act inh RFP: also measured in MT1-MMP act inh; calls as there; RFP signal change, %; measured here: RFP expression control read;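 0 = vehicle wells; hits needed this value within 50% of zero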
* = called active by the depositor; ? = inconclusive; [ ] = dose if it differs, or a comment. A portion of the library, so the mix of outcomes need not match the whole.

HIV Env fusion	MT1-MMP act inh	MT1-MMP act inh RFP	SMILES
-30	3	7	COc1cc(CN2C[C@@H](CO)O[C@@H](n3cnc4c(NCc5ccco5)ncnc43)C2)cc(OC)c1OC
-2	-5	5	COC(=O)C[C@H]1CC[C@H](NC(=O)Nc2ccccc2F)[C@@H](CO)O1
1	-2	-5	CCOC(=O)C[C@@H]1OC2CCCCC2N1S(=O)(=O)c1ccc(C)cc1 (stereo partly specified)
-66	5	-2	C/C(=N/Nc1ccc(C(=O)O)cc1)c1ccc2c(c1)Nc1ccccc1S2
-46	2	3	CCOC(=O)[C@]12CCCC=C1N(Cc1ccc3c(c1)OCO3)C(=O)[C@H](CC(=O)N1CCN(C(=O)C3CC3)CC1)C2
-9	1	-5	Cc1cc(Cl)ccc1C(O)c1ncc(-c2cccc(F)c2)[nH]1 (stereo unspecified)
-22	8	-3	CC(=O)Nc1cccc(OCc2cccc([N+](=O)[O-])c2)c1
-94	-3	3	CCOC(=O)[C@]12CCC=C1N(Cc1ccco1)C(=O)[C@H](CC(=O)NCc1ccc(C)o1)C2
7	-1	0	O=C(COC(=O)Cc1ccc(Br)cc1)NCc1cccs1
9	0	3	O=C(O)c1ccccc1-c1ccccc1C(=O)Nc1ccc2c(c1)C(O)c1ccccc1-2 (stereo unspecified)
-13	6	2	CCOc1cc(N2CCOCC2)c(OCC)cc1NC(=O)c1c(C)noc1C
4	4	5	O=C(Cc1csc2ccccc12)NCC1CC1
7	6	4	CCCC[C@@H]1Cc2[nH][nH]c(=O)c2[C@H](c2ccc3ccccc3c2)O1
82*	-9	-4	Nc1ccn(C2OC(COP(=O)(O)O)C(O)C2O)c(=O)n1 (stereo unspecified)
21	5	5	Cc1cccc(C(=O)N2CCC[C@H]2C(=O)N2CCC[C@H]2C(=O)NCc2ccncc2)c1
-16	-1	0	Nc1cccc2c(=O)[nH][nH]c(=O)c12
3	-6	-2	CC(=NNS(=O)(=O)c1ccc([N+](=O)[O-])cc1)c1ccc(C)cc1
-140	-4	-8	CCOC(=O)[C@]12CCCC=C1N(Cc1cccc3ccccc13)C(=O)[C@H](CC(=O)N1CCSCC1)C2
6	3	6	COc1ccc(OC)c(CN2C(=O)CCC2(C)c2nnnn2Cc2ccccc2)c1 (stereo unspecified)
-25	-2	3	COc1ccc(NC(=O)C(c2ccnc3ccccc23)n2c(=O)c(-c3ccco3)nc3ccccc32)cc1 (stereo unspecified)
5	-5	-1	COC(=O)[C@@]12C[C@@H](CC(=O)N3CCN(C(=O)c4ccco4)CC3)C(=O)N(Cc3ccco3)C1=CCC(C)(C)C2
-421	7	-7	NC(=O)C1=CC2C3C=CC2(O)C(=O)OC3O1 (stereo unspecified)
-2	1	3	COc1ccc(N2CCN(C(=O)C(=O)c3ccc(F)cc3)CC2)cc1
-9	0	5	CN1CCN(C(c2ccccc2)c2nnnn2C(C)(C)C)CC1 (stereo unspecified)
15	0	3	CCCCn1nnnc1C(c1cc2ccccc2o1)N1CCN(CC(=O)N2CCCC2)CC1 (stereo unspecified)
23	10	8	COc1ccc(CN2C(=O)CN(S(C)(=O)=O)CC2(C)C(=O)NC(C)C)cc1OC (stereo unspecified)
11	12	-28	CCCCCCCCNc1ncnc2[nH]ncc12
-29	-4	-2	COc1ccc(-c2cc(C(F)(F)F)nc(SCCC(=O)N3CCN(C)CC3)n2)cc1
0	0	0	COc1cccc(C(C(=O)NC2CCCC2)N2CCN(c3cc(C)nc4ccccc34)CC2)c1OC (stereo unspecified)
-109	7	-14	O=C1Nc2ccc3c(c2C1=Cc1cc2c(cc1Br)OCO2)OCO3

Arranged by molar mass (rising): some entries from above
HIV Env fusion	MT1-MMP act inh	MT1-MMP act inh RFP	SMILES
11	12	-28	CCCCCCCCNc1ncnc2[nH]ncc12
6	3	6	COc1ccc(OC)c(CN2C(=O)CCC2(C)c2nnnn2Cc2ccccc2)c1 (stereo unspecified)
-29	-4	-2	COc1ccc(-c2cc(C(F)(F)F)nc(SCCC(=O)N3CCN(C)CC3)n2)cc1
15	0	3	CCCCn1nnnc1C(c1cc2ccccc2o1)N1CCN(CC(=O)N2CCCC2)CC1 (stereo unspecified)

The main list resumes with the 7 entries that preceded the break.
HIV Env fusion	MT1-MMP act inh	MT1-MMP act inh RFP	SMILES
-9	0	5	CN1CCN(C(c2ccccc2)c2nnnn2C(C)(C)C)CC1 (stereo unspecified)
15	0	3	CCCCn1nnnc1C(c1cc2ccccc2o1)N1CCN(CC(=O)N2CCCC2)CC1 (stereo unspecified)
23	10	8	COc1ccc(CN2C(=O)CN(S(C)(=O)=O)CC2(C)C(=O)NC(C)C)cc1OC (stereo unspecified)
11	12	-28	CCCCCCCCNc1ncnc2[nH]ncc12
-29	-4	-2	COc1ccc(-c2cc(C(F)(F)F)nc(SCCC(=O)N3CCN(C)CC3)n2)cc1
0	0	0	COc1cccc(C(C(=O)NC2CCCC2)N2CCN(c3cc(C)nc4ccccc34)CC2)c1OC (stereo unspecified)
-109	7	-14	O=C1Nc2ccc3c(c2C1=Cc1cc2c(cc1Br)OCO2)OCO3
54	4	-1	COC(=O)[C@]12CCCCC=C1N(CCc1ccc(OC)c(OC)c1)C(=O)[C@H](CC(=O)NCc1ccc(OC)c(OC)c1)C2
6	-5	-13	CCCCNC(=O)c1nc(C2CCN(S(=O)(=O)c3ccc(Cl)cc3)CC2)oc1-c1ccccc1
6	-8	-3	Cc1cccc(C)c1NC(=O)C(c1ccc(-c2ccccc2)cc1)n1c(=O)c(-c2cc3ccccc3[nH]2)nc2ccccc21 (stereo unspecified)
-53	4	-4	Cc1cccc(C)c1-n1nnnc1C1c2ccccc2C(=O)N1CCOc1ccccc1 (stereo unspecified)
-12	-19	-10	CCCCCNC(=O)C(CCc1ccccc1)n1c(=O)c(-c2ccccc2)nc2ccccc21 (stereo unspecified)
-2	2	4	COC(=O)C(C(=O)OC)C1CCCCC1NS(=O)(=O)c1ccc(C)cc1 (stereo unspecified)
6	-3	2	Nc1cc(=O)[nH]c2ncnn12
-1	2	4	COc1ccc(S(=O)(=O)N2CCC[C@@H]2C(=O)N2CCC[C@H]2C(=O)NCc2ccncc2)cc1C
27	-17	-17	O=C(NC1CCCC1)C1C(c2ccc(C(F)(F)F)cc2)=Nc2ccccc2N1C(=O)c1cccc(C(F)(F)F)c1 (stereo unspecified)
-8	4	-13	Cc1ccc(S(=O)(=O)N2CC3C(=O)C[C@@H](c4ccccc4)N(S(=O)(=O)c4ccc(CCCOCCOCCNC(=O)OC(C)(C)C)cc4)C3CC2c2ccccc2)cc1 (stereo partly specified)
9	5	0	CCOC(=O)C1CC(c2ccccc2)=NN1c1ccccc1 (stereo unspecified)
12	2	2	OC[C@@H]1CN(Cc2ccc3c(c2)OCO3)C[C@H](n2cnc3c(NC4CC4)ncnc32)O1
16	3	0	CN(C)/C(=C\C(=O)c1ccccc1)C(=O)c1ccccc1
18	-5	-13	CCOC(=O)C1=CCC(c2ccccc2)N(S(=O)(=O)c2ccc(C)cc2)[C@H]1CC (stereo partly specified)
-158	4	1	O=S1(=O)CC(c2ccccc2)=NN=C(c2ccccc2)C1
24[16.7 µM]	-7	-2	CC(C)NC(=O)N1Cc2cc(C(=O)NC3CCCC3)nc(-c3cccc(-c4cccnc4)c3)c2[C@@H]1CCO
-75	-65	2	CCOc1ccc(NC(=O)/C(C#N)=C\c2ccc(N3CCCC3)c(C)c2)cc1
17	-1	1	CC(C)C[C@@H]1COc2cc(N(C)CCO)ccc2S(=O)(=O)N1
18	5	3	O=C(NCc1ccncc1)[C@@H]1CCCN1C(=O)[C@@H]1CCCN1C(=O)c1cccs1
0	6	3	Cc1ccc(S(=O)(=O)N2CCCCC2)cc1NC(=O)c1cccnc1
4	3	3	COC(=O)[C@@]12C[C@@H](CC(=O)NCCCN3CCCC3=O)C(=O)N(Cc3ccco3)C1=CCC(C)(C)C2
0	2	8	Cc1cccc(C)c1N1C(=O)c2ccccc2NC(=O)C1C(=O)NCc1ccco1 (stereo unspecified)
-13	5	4	O=C1NC[C@@H](CCCCN2CCN(CCc3ccccc3)C(=O)C2=O)N(Cc2ccccc2)C1=O
3	-3	-8	CCOC(=O)[C@]12CCCC=C1N(CCC1=CCCCC1)C(=O)[C@H](CC(=O)NCc1ccccc1)C2
-5	0	8	CC(C)NC(=O)C1(C)CSCC(=O)N1CC(F)(F)F (stereo unspecified)
-8	-4	-8	C/C(=N\NC(=O)CCC(=O)NCc1ccccc1)c1ccc([N+](=O)[O-])cc1
-60	15	5	O=C(NNC(=O)c1ccccc1O)c1ccccc1O
-37	6	3	CCCCNC(=O)C[C@@H]1C[C@@]2(C(=O)OCC)CCC=C2N(Cc2cccc3ccccc23)C1=O
9	9	6	CC(C)NC(=O)C1(C)CSCC(=O)N1Cc1cccs1 (stereo unspecified)
13	0	0	COc1cc(OC)cc(-c2c(Sc3ccccc3)c3cc(-c4ccc(OC)c(F)c4)ccc3n2C)c1
14	-8	-13	COc1ccccc1N1CCN(C(=O)c2ccc3ncsc3c2)CC1
16	-6	-8	CCCCn1nnnc1C(c1cc2ccccc2o1)N1CCN(C(=O)OC(C)(C)C)CC1 (stereo unspecified)
37	-4	-2	Oc1cccc(-c2sc3ccccc3c2-c2ccc(OCCN3CCCCC3)cc2)c1
3	-15	-20	CC(=O)c1ccc(S(=O)(=O)N2CCN(C(=O)c3ccc(COc4ccccc4)o3)CC2)cc1
-24	-3	5	COc1ccc(NC(=O)C(c2ccncc2)n2c(=O)c(-c3ccco3)nc3ccccc32)cc1 (stereo unspecified)
-32	9	0	Cc1ccc(O)c(C(=O)C=Cc2ccccc2)c1
-13	0	1	Cc1ccc(C(=O)NCC(=O)OC2CCCCC2=O)cc1C (stereo unspecified)
-3	-2	3	OC[C@@H]1CN(CCN2CCOCC2)C[C@H](n2cnc3c(N4CCOCC4)ncnc32)O1
-29	8	-5	CC(=NNC(=S)Nc1cccc(C)c1)c1ccccn1
0	8	6	COCc1cn(CC(C)n2c(=O)c3ccccc3n2Cc2cc(C(C)C)no2)nn1 (stereo unspecified)
-22	3	4	CC(C)(C)n1nnnc1C(c1cc2ccccc2o1)N1CCCC1 (stereo unspecified)
-22	0	1	CCCN(C)C1CN(Cc2cn(Cc3ccc(OC)cc3)nn2)S(=O)(=O)C1 (stereo unspecified)
0	9	-12	CCOc1ccc(S(=O)(=O)c2ccc(C)cc2)c2c1no[n+]2[O-]
48	12	-6	C=C1C(=O)OC2C1CCC(C)=CCCC1(C)OC21 (stereo unspecified)
14	-1	2	CC(C)C[C@H]1CN([C@@H](Cc2ccc(O)cc2)CN2CCC[C@H]2CN2C(=O)C(=O)NC[C@@H]2Cc2ccccc2)C(=O)C(=O)N1CC1CCCCC1
48	10	-2	CCN(CC)Cc1cc(Nc2c3ccccc3nc3c4ccccc4n(C)c23)cc(CN(CC)CC)c1O
-4	8	4	CC1=C(C(=O)N2CCCCCC2)CC(CC(=O)NCCCN(C)C)C(=O)N1Cc1ccc(C(C)(C)C)cc1 (stereo unspecified)
2	2	7	O=c1[nH]cnc2c1ncn2C1OC(CO)CC1F (stereo unspecified)
-17	4	9	CC1(c2nnnn2-c2ccc3c(c2)OCCO3)CCC(=O)N1CC(F)(F)F (stereo unspecified)
24	-16	-22	O=C(Nc1ccc(F)cc1)C(CCc1ccccc1)N1CCN(c2cccc(C(F)(F)F)n2)CC1 (stereo unspecified)
-8	6	5	CC(C)NC(=O)C1(C)CN(S(C)(=O)=O)CC(=O)N1C1CC1 (stereo unspecified)
?	-1	-5	COC(=O)c1cccc(OCCCN2CCC(C(O)(c3ccccc3)c3ccccc3)CC2)c1
-44	-5	-5	COc1ncc(-c2ccc(N3C(c4ccsc4)=Cc4ccc(F)cc4C3CC(C)=O)cc2)cn1 (stereo unspecified)
8	4	7	CCCNC(=O)OC1CC2CC1[C@H]1CCCCN1C2=O (stereo partly specified)
-4	5	0	O=C(OCC(=O)N1CCc2ccccc21)c1cc(S(=O)(=O)N2CCOCC2)ccc1F
5	-5	3	c1ccc2c(c1)CNc1ccccc1-2
2	-5	-5	Cc1ccc(-c2nc3c(C)cc(Br)cn3c2Cc2cccc(F)c2)cc1
-87	-2	1	O=C1CSC(=S)N1N=Cc1ccc2c(c1)OCO2
-58	0	-4	CCOC(=O)c1sc2nc(OCc3cccnc3)cc(C)c2c1N
-24	1	1	COc1cccc(C(=O)N2CCN(c3nc4cc(C)cc(C)c4cc3C#N)CC2)c1

(cont.)
HIV Env fusion	MT1-MMP act inh	MT1-MMP act inh RFP	SMILES
-20	-3	-8	O=S(=O)(N/N=C1/CC(c2ccccc2)Oc2ccccc21)c1ccccc1 (stereo unspecified)
14	2	-6	Cc1cc2nc(-c3cccc(Br)c3)c(Cc3cccc(Cl)c3)n2c(C)c1Br
6	0	1	COc1ccc(CN2C(=O)CSCC2(C)C(=O)Nc2c(C)cccc2C)cc1 (stereo unspecified)
4	-1	6	CCCCNC(=O)c1[nH]c(C2CCNCC2)nc1-c1cccc(C(F)(F)F)c1
19	4	8	O=NN(CCF)C(=O)NC1CCS(=O)(=O)CC1
0	-2	5	CC(C)[C@H](NC(=O)OC(C)(C)C)c1cc(C(=O)N(C)CCN(C)C)c(N)s1
10	-97	0	Cc1cc(NC(=O)/C(C#N)=C\c2ccc(-c3ccc(SC(F)F)cc3)o2)n(-c2ccccc2)n1
1	6	-4	FC(F)(F)C1=Nc2cccc3cccc(c23)N1
-17	4	2	COC(=O)[C@]12CCCCC=C1N(Cc1ccc3c(c1)OCO3)C(=O)[C@H](CC(=O)N1CCN(C(=O)c3ccco3)CC1)C2
